BJeLR lethal – BJeLR cell viability loss; inhibition, % (no concentration beside the values); 300,000 compounds, 0.17% hits; BJeLR (HRASV12) viability, CellTiter-Glo ATP luminescence, 48 h; reference of the scale not given here;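 active means replicate mean above 50%; inconclusive means above 50% but judged a plate artefact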;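 further: 50 nL library stock added to about 25 µL; numbers are from one replicate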
Sa ugtP lethal – growth inhibition of S. aureus ugtP deletion strain | 330,000 compounds, 0.54% hits | S. aureus RN4220 ugtP deletion, OD600 growth, 16 h; some inactives read as strong as hits | AID 1259309 | growth inhibition, % (no concentration beside the values);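 active means z-score under -3 and OD600 up to 0.15 on both plates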;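 further: plate controls were untreated wells for no effect and antibiotic for full effect; wells of about 80 µL received 100 nL stock; the first replicate is given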
Autofluor counter – flagged as autofluorescent in microsphere protease counterscreen; compound autofluorescence counterscreen, microsphere flow cytometry; hits give high values; fluorescence intensity (concentration not given with the values); 360,000 compounds, 3.1% hits; AID 624483;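 active means at least 3 SD above the mean of all compounds, about 16000 in these data; inconclusive means too few beads counted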;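 further: 100 nL of 1 mM stock went into each well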
PrP UTR inh – inhibition of PrP 5' UTR reporter expression; cell-based PrP 5' UTR mRNA reporter, plate reader; inhibition, % (no concentration beside the values); 340,000 compounds, 0.35% hits; AID 488862;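 active means every replicate at 50% or more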;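 further: 0 = median of the neutral control wells; tested in H4 reporter cells; numbers are from one replicate; inactives centre near -14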
RN4220 kill – S. aureus RN4220 growth inhibition. OD600, 16 h. inhibition, % (concentration not given with the values). 330,000 compounds, 0.33% hits;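 active means z-score of -3 or lower and OD600 up to 0.18 on both plates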;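 further: plate controls were untreated cells for no effect and reference antibiotic for full effect; stock transfer was 100 nL into about 80 µL; one replicate is shown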
Mtb hypoxia inh – reduces hypoxia-regulated biosensor signal in M. tuberculosis; fluorescence inhibition, % (test concentration not listed); 300,000 compounds, 0.1% hits; M. tuberculosis hypoxia-regulated fluorescent reporter, fluorescence;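 active means 35 to 45% if threefold the growth effect, above 45% if 1.5-fold the growth effect; inactive means the rest, general growth blockers included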;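 further: wells of about 50 µL received 100 nL stock; 0% = vehicle wells and 100% = reference inhibitor wells; whole bacteria with a GFP reporter of the hypoxia response; strong numbers were not always called active; many hits fall short of the cut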
Mtb hypoxia inh growth – recorded beside Mtb hypoxia inh, whose call it bears; growth inhibition, %; measured here: M. tuberculosis growth (absorbance);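 0% = vehicle and 100% = reference antibiotic; read after six days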
Starred values were filed as active, the others as inactive; u = inconclusive; x = no result given.

molecule	BJeLR lethal	Sa ugtP lethal	Autofluor counter	PrP UTR inh	RN4220 kill	Mtb hypoxia inh	Mtb hypoxia inh growth
CCCn1c(NCc2ccc(C)o2)nc2ccccc21	14.3	-4.3	11361	-54.7	-1.2	-0.5	0.8
CCCn1cc(S(=O)(=O)CC(=O)N2CCc3ccccc32)c2ccccc21	-3.6	-3.0	6753	-8.8	6.8	4.9	0.5
COc1ccc(C(C)=NN2CCCCC2)c(O)c1	x	-0.8	x	x	1.1	7.1	-2.3
Nc1nc(SCc2ccc(F)cc2)ns1	2.0	0.5	4274	-10.4	0.1	1.7	-2.4
Cc1cccc(C(=O)NC(=S)N2CCN(c3ccc([N+](=O)[O-])cc3)CC2)c1	-8.3	65.6	2202	-18.4	-2.0	7.0	-3.3
Cc1ccc(-c2nnn(CC(=O)NCC3COCCO3)n2)o1 (centres undefined)	-1.0	2.9	4328	-38.9	1.9	x	x
C=C(C)Cn1c(C2CC(=O)N(Cc3ccccc3)C2)nc2ccccc21 (centres undefined)	-7.2	8.2	5104	-12.2	0.4	7.8	-0.9
CN(C)c1ccc(CNC(=O)CN(C)S(=O)(=O)c2ccc3c(c2)c(=O)n(C)c(=O)n3C)cc1	-7.4	7.1	4651	-1.7	3.6	8.1	-1.8
CC(C)(C)c1ccc(C=NOCC(=O)NCc2ccccc2)cc1	x	50.0	x	x	-1.6	5.3	3.8
CC(=NNC(=O)C1CC1)c1ccc(N2CCOCC2)cc1	x	1.3	x	x	-0.3	-3.9	11.7
CCc1c(C)sc(NC(=O)c2ccco2)c1C(=O)N1CCCCC1	-14.9	-1.0	22698*	-3.3	3.0	10.8	13.5
O=C1CCN(S(=O)(=O)c2ccccc2)CCN1CCOCc1cccc(F)c1	2.5	-0.2	3522	-19.3	2.0	7.2	13.3
COc1ccc(NC(=O)Cn2nc(C(=O)O)c3ccccc3c2=O)cc1OC	-5.3	2.4	3004	-5.7	5.9	-5.9	-6.8
CN(C)S(=O)(=O)c1ccc(C(=O)Oc2ccccc2)cc1	3.4	3.1	3711	-2.4	8.8	x	x
COc1cccc(N2C(=O)C(Cc3c[nH]c4ccccc34)NC2=S)c1 (centres undefined)	-5.0	-1.2	2372	-22.7	1.1	11.9	8.8

2 entries from above, with values under each structure.
Values run as follows: BJeLR lethal, Sa ugtP lethal, Autofluor counter, PrP UTR inh, RN4220 kill, Mtb hypoxia inh, Mtb hypoxia inh growth
CCc1c(C)sc(NC(=O)c2ccco2)c1C(=O)N1CCCCC1
    -14.9, -1.0, 22698*, -3.3, 3.0, 10.8, 13.5
CCCn1c(NCc2ccc(C)o2)nc2ccccc21
    14.3, -4.3, 11361, -54.7, -1.2, -0.5, 0.8

Carrying on.
molecule	BJeLR lethal	Sa ugtP lethal	Autofluor counter	PrP UTR inh	RN4220 kill	Mtb hypoxia inh	Mtb hypoxia inh growth
CN1CCN(CCc2nc3cc(NC(=O)COc4ccc(Cl)cc4)ccc3n2C)CC1	-7.6	-3.2	5804	-9.6	-1.2	-0.4	7.1
NC(=O)N/N=C\c1cc(Br)ccc1O	-5.9	x	2426	-8.3	x	x	x
O=C(Nc1cccc(Cl)c1)Nc1cnccn1	-13.0	-4.6	5108	-17.3	-0.4	3.9	10.8
CN(C)NC(=S)NC(=O)C12CC3CC(CC(C3)C1)C2	2.8	6.6	2645	-2.2	-0.3	-2.2	-0.3
CCc1ccccc1NC(=O)CN1CCN(C(=O)CNC(=O)c2ccccc2F)CC1	x	7.6	3860	0.9	0.8	5.4	8.1
O=C(O)c1ccc(Cl)c(S(=O)(=O)Nc2ccccc2Cc2ccccc2)c1	-3.3	-4.2	5771	-16.7	3.1	4.8	2.6
CCOc1ccc(C2c3[nH]c4ccccc4c3CCN2Cc2cccn2-c2ncccn2)cc1 (centres undefined)	6.8	1.3	4456	3.2	-3.8	-8.5	11.6
COc1ccc(CCNC(=O)c2cc3c(cc2Cl)N2CCCCCC2=NS3(=O)=O)cc1	1.9	-3.3	5543	-18.3	-1.2	-2.8	7.4
COc1ccc2[nH]c(=O)c(CN(Cc3cccs3)C(=S)Nc3cccc(C)c3)cc2c1	-8.5	-7.8	1988	1.1	26.0	13.3	11.4
CC1CCCCN1CCCNC(=O)c1ccc2nc(N3CCCCC3)sc2c1 (centres undefined)	12.4	-14.3	5946	-47.2	-3.0	-2.5	12.2
CCn1cc(CN2CCN(C)C(CCO)C2)c2ccccc21 (centres undefined)	-8.1	11.2	4005	-10.7	4.3	11.5	5.5
CCOC(=O)C1=C(C)NC(=O)NC1c1cc(C)sc1C (centres undefined)	5.2	2.9	2509	-8.2	-0.6	x	x
CC(C)N(C(=S)Nc1cccc(C(F)(F)F)c1)C(C)c1ccccn1 (centres undefined)	-9.3	2.8	3313	-9.4	-30.7	10.6	1.5
CCc1ccc(NC(=O)C(C)OC(=O)/C=C/c2ccc(O)c(OC)c2)cc1 (centres undefined)	x	17.9	3390	-32.6	10.0	3.4	2.0
Cc1nc(-c2cccc(NC(=O)c3cccc(S(=O)(=O)N4CCCC4)c3)c2)cs1	x	-2.1	3762	3.0	4.2	-2.1	7.0
CCN1C(=O)[C@@H]2[C@@H](c3ccc(-c4ccc(Cl)c(Cl)c4)cc3)N3CCC[C@@]3(C(=O)OC)[C@@H]2C1=O	x	2.5	4149	5.7	-6.1	-1.0	-5.1
O=C(Nc1nnc(S(=O)(=O)N2CCCC2)s1)c1ccccc1Br	2.1	11.3	5697	-0.7	-6.9	4.6	-2.5
O=C(CN1CCCC1)Nc1ccc(OC(F)(F)F)cc1	-1.5	2.5	3841	-10.4	-0.1	8.4	10.9
Cc1nc(NC(=O)c2ccccc2)sc1-c1csc(NCc2ccco2)n1	4.4	-14.8	6000	-28.7	7.3	1.8	15.0
Nc1ccc(Cc2ccc(N)c(O)c2)cc1O	x	-3.0	4825	-14.9	4.4	11.7	-8.4
COc1ccc([N+](=O)[O-])cc1N(CC(=O)NC1CCCC1)S(C)(=O)=O	2.2	4.7	4475	-20.6	2.8	0.1	0.9
O=c1ccnc(SCn2nnc3ccccc3c2=O)[nH]1	15.4	3.1	21117*	-23.9	-2.6	-1.3	5.0
COc1ccc(CC(=O)Oc2ccccc2Cl)cc1S(=O)(=O)N1CCOCC1	-4.7	2.3	u	-17.4	1.2	-8.3	2.9
C/C(=N\OC(=O)Nc1ccc(Cl)cc1)c1ccc(F)c(F)c1	3.9	x	4025	0.6	x	x	x
O=c1[nH]c(SCc2ccc(F)cc2)nc2c1cnn2-c1ccc(F)cc1	-6.5	-7.4	5239	9.8	9.6	-2.9	-2.8
O=C(NCc1ccco1)C1CCCN1C(=O)Nc1ccccc1Cl (centres undefined)	-1.1	-0.8	3282	-16.8	1.0	6.9	7.4
CCOC(=O)C1CCN(Cc2nc3ccccc3c(=O)n2-c2ccc(F)cc2)CC1	5.9	8.7	x	-11.2	4.1	3.3	5.1
CCC1(CCc2ccncc2)C(=O)NC(=O)NC1=O	0.5	-4.4	4691	-2.6	2.2	x	x
O=C(O)/C=C/C(=O)Nc1cccnc1	x	8.9	2491	-16.4	2.2	9.2	-4.0
Cc1cc(C)n(CC(=O)n2nc(C)cc2C)n1	-13.2	2.9	4560	-29.3	5.7	12.4	5.5
O=C(NCC(c1ccco1)N1CCc2ccccc2C1)C(=O)Nc1ccc(F)cc1F (centres undefined)	8.2	6.3	6833	-15.2	-1.1	1.7	1.0
Cc1cc(C)c2c(N)c(C(=O)NN)sc2n1	-6.5	8.1	4220	-16.6	3.2	5.7	8.0
CN(C)c1nc(Nc2ccccc2)nc(Oc2ccc(=O)[nH]n2)n1	-4.3	3.0	4429	-6.2	0.4	11.0	-1.0
CCOc1ccc(/C=C/C(=O)N2CCOCC2)cc1OC	-8.0	-4.1	3325	4.7	-0.6	-4.9	-8.4
O=C(Cc1ccccc1)Nc1c2c(nn1-c1cccc(Cl)c1)CS(=O)(=O)C2	-16.6	-3.3	20201*	-35.5	10.8	2.9	5.9
CC(=O)Nc1ccc(S(=O)(=O)NC(C)C(=O)NC(C)c2ccccc2)cc1 (centres undefined)	-0.4	0.3	3406	-12.4	0.0	-0.2	9.4
O=C(NCc1cccnc1)Nc1cccc(NC(=O)NCc2cccnc2)c1F	-3.1	7.7	3140	0.5	4.9	19.7	10.2
O=C(COC(=O)c1ccccc1)NCCC1=CCCCC1	7.1	-2.7	3720	-31.8	-2.7	3.2	3.9
COc1c(O)cccc1C=NNC(=O)Cn1ccnc1C	x	18.0	x	x	3.8	6.6	20.6
Cn1c(=O)c2c(nc(SCc3ccccc3F)n2C)n(C)c1=O	-4.2	0.0	x	-0.6	2.3	12.9	13.3
COc1cc(NC(=O)CNc2cccc(S(=O)(=O)N3CCCC3)c2)cc(OC)c1	12.5	-5.8	5543	3.5	-2.1	-16.6	-5.8
O=S(=O)(c1cccc(-c2nnc(-c3ccc(Br)cc3)o2)c1)N1CCCCCC1	4.3	-5.1	20866*	-35.9	5.7	8.5	11.6
O=C1CN(C(=O)COC(=O)Cc2ccsc2)c2ccccc2N1	8.0	0.6	23072*	-8.4	0.6	5.7	3.9
Cc1ccsc1-c1nc(CSCC(=O)NCc2ccc3c(c2)OCO3)c(C)o1	-7.5	-5.6	5317	-17.5	-1.9	-0.2	11.3
Cc1ccc(S(=O)(=O)N(CC(=O)O)c2ccc(Cl)c(C(F)(F)F)c2)cc1	4.6	6.4	5254	-14.7	6.1	9.8	-4.9
O=c1oc2ccccc2c(O)c1C=Nc1ncccn1	x	8.2	x	x	6.1	2.9	1.3
CS(=O)(=O)c1ccc2nc(NC(=O)C3COc4ccccc4O3)sc2c1 (centres undefined)	-5.0	6.3	3265	-17.2	0.7	x	x
O=C1CSC(c2ccccc2)N1c1cccnc1 (centres undefined)	-0.7	3.2	6221	-36.9	3.4	-0.5	-0.3
O=C(NCCNC(=O)C1CC2CCC1C2)C1CC2CCC1C2 (centres undefined)	1.8	9.7	3298	-7.5	5.1	14.2	20.4
O=C(O)C1CC=CCC1C(=O)Nc1ccccc1C(=O)N1CCN(c2ccc(F)cc2)CC1 (centres undefined)	4.2	-2.1	2608	-35.1	1.8	-1.3	4.8
COc1cc2ccccc2cc1C(=O)Nc1ccc(N2CCN(C)CC2)cc1	8.3	22.2	8890	-49.8	-2.3	11.9	17.2
COC(=O)C1=C(C)NC(=O)CC1c1ccccc1 (centres undefined)	0.1	-4.8	3007	-14.8	-11.7	15.4	8.5
CN(C)C(=O)Cn1c(SCC(=O)N2CCCc3ccccc32)nc2ccccc21	0.2	-2.6	9850	-11.9	1.3	2.4	10.3
COc1ccc(N2CCN(C(=O)c3ccccc3N(C)S(=O)(=O)c3ccccc3)CC2)cc1	2.8	3.8	6534	-49.5	1.5	3.7	8.3
CC(C)NC(=O)CC1(C(=O)NCc2ccc(Cl)cc2)CCCC1	-7.0	3.3	4078	-24.2	0.1	-1.8	-5.4
CS(=O)(=O)Nc1nnc(Cc2ccccc2)s1	-5.9	-3.3	2822	-9.8	2.5	x	x
COc1ccc(/C(C)=C(\C#N)C(=O)OC(C)C)cc1OC	-6.6	-3.0	3698	-19.6	5.0	5.5	11.1
C=CCNC(=O)C(=O)Nc1ccc2c(c1)N(S(=O)(=O)c1cccs1)CCC2	13.0	1.4	x	-18.9	3.8	6.4	13.8
O=C(N/C(C(=O)N1CCOCC1)=C(\Sc1ncccn1)c1ccccc1)c1ccccc1	-1.7	0.3	2528	-12.7	1.3	-5.0	2.7
CN(Cc1ccccc1)S(=O)(=O)c1ccccc1[N+](=O)[O-]	5.3	-4.3	4434	-11.6	6.9	7.1	4.2
COc1ccc(NC(=O)CCCC(=O)c2ccccc2)cc1	2.4	-0.8	3745	-12.6	2.6	-0.6	7.1
COc1cc(/C=C/C2=CC(C)(C)NC(=S)N2)cc(OC)c1OC	-3.7	6.4	2190	-19.5	-1.3	0.3	4.4
Cc1c(O)nc(SCC(=O)Nc2ccc3c4c(cccc24)CC3)n(-c2ccc(F)cc2)c1=O	-7.1	13.1	2469	-9.5	5.3	6.9	-0.1

Screening results (PubChem)
